rRNA inh HTS = inhibits bacterial ribosomal RNA function over humanized ribosomes; E. coli WT GFP vs humanized-ribosome RFP mutants, fluorescence, 24 h; active compounds read low; DMSO median 0, no signal -100; GFP signal change (wild-type ribosome), % (no concentration beside the values); actives 1.6% (n = 350,000); AID 720706;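 active = significant combined selectivity score with lowered wild-type GFP, culture density cut under 30%, mutant RFP and density less affected; inactive = any of these conditions unmet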; note: one replicate is shown; some compounds called inactive have numbers as strong as hits
MLL AF4-AF9 inh = inhibitors of human MLL-AF4/AF9 interaction; AlphaScreen, biotin-AF4 peptide binding to FLAG-AF9; inhibition, % at 10 µM; actives 0.47% (n = 350,000); AID 651704;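 active = every replicate reaching a set inhibition limit, whatever the replicate mean, cut at about 25% in these data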;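 note: 0% = plate neutral control median and 100% = total signal loss; the record names both 10 and 1 µM as test concentration; the first replicate is given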
Target sequence (P42568 whole entry, looked up): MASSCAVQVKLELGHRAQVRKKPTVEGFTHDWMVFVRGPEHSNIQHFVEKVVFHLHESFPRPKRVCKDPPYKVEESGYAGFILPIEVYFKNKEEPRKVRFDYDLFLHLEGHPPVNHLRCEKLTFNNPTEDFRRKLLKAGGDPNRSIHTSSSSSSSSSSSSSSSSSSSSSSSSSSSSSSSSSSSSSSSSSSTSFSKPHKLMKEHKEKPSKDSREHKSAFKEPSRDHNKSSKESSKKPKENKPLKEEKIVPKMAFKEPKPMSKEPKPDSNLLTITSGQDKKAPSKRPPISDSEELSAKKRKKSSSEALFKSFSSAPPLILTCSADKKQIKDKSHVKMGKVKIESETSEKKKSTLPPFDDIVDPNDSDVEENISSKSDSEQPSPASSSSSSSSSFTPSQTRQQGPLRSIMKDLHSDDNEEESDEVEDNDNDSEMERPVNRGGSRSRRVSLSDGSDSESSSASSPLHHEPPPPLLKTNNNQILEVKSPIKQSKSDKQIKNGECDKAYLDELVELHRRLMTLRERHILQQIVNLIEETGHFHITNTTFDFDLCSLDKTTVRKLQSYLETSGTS
FGF22 binding = FGF22 (human) thermal shift binding. calls only at 9.99 µM. AID 651658. actives 1.5% (n = 340,000). recombinant FGF22 thermal shift, SYPRO orange fluorescence; percent of sucrose octasulfate shift, DMSO zero;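 active = melting point raised past a set limit in the mean and every replicate; three in four hits are not shown here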
Target sequence (Q9HCT0 whole entry, looked up): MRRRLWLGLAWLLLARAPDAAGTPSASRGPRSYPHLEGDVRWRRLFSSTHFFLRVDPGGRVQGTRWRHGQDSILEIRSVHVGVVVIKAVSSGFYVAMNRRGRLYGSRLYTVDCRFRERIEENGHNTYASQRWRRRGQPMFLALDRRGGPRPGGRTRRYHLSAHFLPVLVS
rRNA inh HTS OD600 = recorded beside rRNA inh HTS, whose call it bears; OD600 change, %; measured here: OD600 growth;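 optical density of the mix in the first replicate; 0 = DMSO median and -100 = no signal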
rRNA inh HTS RFP = second read-out of rRNA inh HTS, no call of its own (marks repeat the call); RFP signal change, %; measured here: RFP humanized mutant strains;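 first replicate; 0 = DMSO median and -100 = no signal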
* marks the source's active call; other numbers are inactive results; i = inactive; / = not tested or not shown.

SMILES	rRNA inh HTS	rRNA inh HTS OD600	rRNA inh HTS RFP	MLL AF4-AF9 inh	FGF22 binding
CO[C@@H]1CN(C)C(=O)c2cc(NC(C)=O)ccc2OC[C@H](C)N(Cc2ccccc2F)C[C@@H]1C	2	6	-0.8	5.4	i
Cc1noc(C)c1NC(=O)N(C)C[C@@H]1Oc2c(NS(=O)(=O)c3c(C)noc3C)cccc2C(=O)N([C@@H](C)CO)C[C@@H]1C	3	8	0.3	-1.7	i
CC=Cc1ccc2n(c1=O)C[C@@H]1[C@@H](CO)[C@H](C(=O)N3CCc4ccccc4C3)N(C(=O)C3CC3)[C@H]21 (mixture of isomers)	1	-1	0.3	1.9	i
COc1ccc(S(=O)(=O)N[C@@H]2C=C[C@H](CC(=O)NCCc3ccccc3)O[C@H]2CO)cc1	-4	1	-1.6	1.0	i
C[C@@H]1CN([C@@H](C)CO)C(=O)c2cc(NC(=O)CCC(F)(F)F)ccc2O[C@@H](C)CCCCO[C@H]1CN(C)C(=O)CCCN(C)C	0	3	0.3	-2.1	i
COc1ccc(S(=O)(=O)Nc2ccc3c(c2)C(=O)N([C@H](C)CO)C[C@@H](C)[C@H](CN(C)S(=O)(=O)c2ccc(OC)cc2)O3)cc1	-4	-6	0.3	0.8	i
CC(C)C(C(=O)NC1CCCC1)N1CCC(O)(c2ccc(Cl)cc2)CC1 (centres undefined)	9	5	-0.4	-0.4	i
CC1(C(=O)NS(=O)(=O)c2ccc(C#N)cc2)CCN1C(=O)c1cccc2ccccc12 (centres undefined)	13	16	2.3	-3.3	i
COc1cc(CN2C[C@@H](CO)O[C@@H](n3cnc4c(NCCCO)ncnc43)C2)cc(OC)c1OC	10	21	-1.4	0.5	i
O=C(CCN1CCCCC1)NCC[C@H]1CC[C@@H](NC(=O)C2CCCC2)[C@@H](CO)O1	-2	3	1.7	-0.1	i
C[C@H]1CN([C@@H](C)CO)C(=O)c2cc(C#CCN(C)C)cnc2O[C@H]1CN(C)C(=O)CCN1CCCCC1	2	6	-0.3	0.0	i
C[C@H](CO)N1C[C@H](C)[C@H](CN(C)C(=O)Nc2ccc(C(F)(F)F)cc2)OCCCC[C@H](C)Oc2ccc(NC(=O)CCC(F)(F)F)cc2C1=O	5	5	-0.6	-1.8	i
CCC(=O)N(C)C[C@H]1Oc2cc(-c3ccc(F)cc3)ccc2S(=O)(=O)N([C@@H](C)CO)C[C@H]1C	-2	-6	0.9	-2.5	i
O=C(C1CCCC1)N1[C@H](CO)[C@H]2c3ccccc3N(S(=O)(=O)c3ccc(F)cc3)C[C@H]21	-3	5	3.4	0.8	i
C[C@H](CO)N1C[C@H](C)[C@@H](CN(C)S(=O)(=O)c2ccc(Cl)cc2)Oc2ccc(NS(=O)(=O)c3ccc(F)cc3)cc2C1=O	-4	3	-4.6	0.9	i
CSCCC(C(=O)NC1CCCC1)n1c(C2CCCC2)nc2ccccc21 (centres undefined)	8	0	-1.1	1.2	/
CCC(=O)N(C)C[C@@H]1Oc2cc(C#CC(C)C)ccc2S(=O)(=O)N([C@@H](C)CO)C[C@H]1C	-1	-11	-0.7	-0.8	i
Cc1noc(C)c1NC(=O)N(C)C[C@H]1Oc2cc(C#CCC(C)C)ccc2S(=O)(=O)N([C@H](C)CO)C[C@@H]1C	-2	-2	0.7	5.8	i
O=c1cc(CN2CCCCC2)c2c(ccc3ccccc32)o1	-4	-4	1.9	6.4	i
Cc1cc(C(=O)Nc2cccc3c2O[C@H](CN(C)S(=O)(=O)c2cccs2)[C@H](C)CN([C@H](C)CO)C3=O)n(C)n1	0	5	0.1	-15	i
C[C@@H]1CN([C@@H](C)CO)S(=O)(=O)c2ccc(-c3ccccc3)cc2O[C@H]1CN(C)C	-4	-9	-5.3	-1.4	i
COc1ccc(NC(=O)Nc2cccc3c2O[C@H](CN(C)S(C)(=O)=O)[C@@H](C)CN([C@@H](C)CO)C3=O)cc1	2	-1	-1.4	-1.1	i
CCCNC(=O)Nc1ccc2c(c1)C(=O)N(C)C[C@@H](OC)[C@H](C)CN(C(=O)C1CCC1)[C@@H](C)CO2	1	1	-0.7	-1.4	i
COCCNC(=O)C[C@@H]1CC[C@H](NC(=O)NC2CCCCC2)[C@@H](CO)O1	-1	4	0.3	0.0	i
CC1(C(=O)Nc2cccc3cccnc23)CCN1Cc1ccc(-c2ccccc2)o1 (centres undefined)	-3	-2	7.1	-0.9	i
SMILES	rRNA inh HTS	rRNA inh HTS OD600	rRNA inh HTS RFP	MLL AF4-AF9 inh	FGF22 binding
Cn1ncc2cc3c(Nc4ccc(Cl)cc4)cccc3nc21	-16	-56	13	-19	i
CN1CCN(C(=O)C[C@H]2CC[C@H]3[C@H](COc4ccc(NC(=O)C5CC5)cc4C(=O)N3C)O2)CC1	0	11	-2.5	0.7	i
COc1ccccc1NC(=O)N1C[C@@H]2[C@H](c3ccccc31)[C@@H](CO)N2C(=O)c1ccccc1	-6	-4	-2.2	3.0	i
C[C@@H]1CN([C@@H](C)CO)C(=O)Cc2cc(NC(=O)Nc3ccc(C(F)(F)F)cc3)ccc2O[C@@H]1CN(C)C(=O)Nc1cccc2ccccc12	0	5	0.7	-22	i
CN1C(=O)c2cc(NC(=O)c3ccccc3)ccc2OC[C@H]2O[C@H](CC(=O)O)CC[C@@H]21	4	2	3.5	-1.1	i
COc1ncnc2c1ncn2CCCN1CCN(Cc2cccc3ccccc23)CC1	-2	-1	0.1	3.8	i
O=C(Nc1cccc(F)c1)N1CCCCN2[C@H](CO)[C@@H](c3ccc(C#Cc4cccnc4)cc3)[C@@H]2C1	-7	-29	1.4	-1.7	i
Cc1oc2c(c(C)nn2-c2ccccc2)c(=O)c1Cl	-4	-10	-2.2	-6.6	i
C[C@@H]1CN([C@H](C)CO)C(=O)c2cc(C#CCN(C)C)cnc2O[C@H]1CN(C)Cc1ccccc1	3	3	-2.0	1.9	i
CN1C(=O)c2cc(NC(=O)C3CCCC3)ccc2OC[C@H]2O[C@H](CC(=O)NCC(F)(F)F)CC[C@@H]21	0	8	-2.2	-1.0	i
COc1ccc(-c2ccc([C@H]3[C@@H](CO)N(C(=O)C4CCC4)[C@H]3C#N)cc2)cc1	1	0	1.0	-1.7	i
CS(=O)(=O)N1C[C@H](O)COC[C@H]2O[C@@H](CC(=O)NCc3ccccc3)CC[C@@H]21	3	11	-1.7	-1.1	i
Cc1cc2nc[nH]c(=O)n2n1	7	9	-2.5	-0.3	i
C[C@@H]1CN([C@H](C)CO)C(=O)c2cc(/C=C/c3ccccc3)cnc2O[C@H]1CN(C)C(=O)c1ccc(F)cc1	-4	-6	-1.7	12	i
Cc1noc(C)c1S(=O)(=O)Nc1ccc2c(c1)C(=O)N([C@H](C)CO)C[C@H](C)[C@@H](CN(C)S(=O)(=O)c1c(C)noc1C)OCCCC[C@@H](C)O2	4	10	1.6	-7.8	i
Cc1noc(C)c1NC(=O)Nc1ccc2c(c1)C(=O)N([C@H](C)CO)C[C@H](C)[C@@H](CN(C)C(=O)NC1CCCCC1)OCCCC[C@H](C)O2	-3	-1	-0.8	3.2	i
Cc1noc(C)c1NC(=O)N(C)C[C@@H]1OCCCC[C@H](C)Oc2ccc(N(C)C)cc2C(=O)N([C@@H](C)CO)C[C@@H]1C	0	4	0.7	-5.0	i
C[C@@H]1CN([C@@H](C)CO)S(=O)(=O)c2ccc(Br)cc2O[C@@H]1CN(C)Cc1ccncc1	-3	-7	1.6	-3.0	i
CNC[C@H]1Oc2ccc(NS(=O)(=O)c3ccc(C)cc3)cc2C(=O)N([C@@H](C)CO)C[C@@H]1C	5	-2	0.1	6.7	i
OCCCCCCNc1ccc(CCO)cc1	-3	0	-3.0	-3.7	i
C[C@@H]1CN([C@H](C)CO)C(=O)c2cc(C#C[C@@H](C)O)cnc2O[C@@H]1CN(C)CC1CCOCC1	13	7	-3.4	-2.8	i
CC(C)NC(=O)Nc1ccc2c(c1)C(=O)N([C@@H](C)CO)C[C@H](C)[C@@H](CN(C)C(=O)Nc1ccc3c(c1)OCO3)OCCCC[C@H](C)O2	-3	-11	0.5	2.1	i
CO[C@H]1CN(C)C(=O)c2cc(NC(=O)Nc3cccc(F)c3)ccc2OC[C@H](C)N(C(C)=O)C[C@@H]1C	-3	-6	0.8	1.4	i
CC(=O)Nc1ccc(CNc2nc3cc(-c4cccc(C(F)(F)F)c4)sc3c(=O)n2C)cc1	-4	11	-3.0	-2.9	i
O=C(C[C@H]1CC[C@@H]2[C@H](COC[C@H](O)CN2CC2CCOCC2)O1)NCc1ccc(Cl)cc1	-2	22	-0.9	-2.2	i

Full records as entered above. Order of values: rRNA inh HTS	rRNA inh HTS OD600	rRNA inh HTS RFP	MLL AF4-AF9 inh	FGF22 binding
COc1ncnc2c1ncn2CCCN1CCN(Cc2cccc3ccccc23)CC1 is listed with -2	-1	0.1	3.8	i
CN1C(=O)c2cc(NC(=O)C3CCCC3)ccc2OC[C@H]2O[C@H](CC(=O)NCC(F)(F)F)CC[C@@H]21 is listed with 0	8	-2.2	-1.0	i

Structures from the list above that contain a CF3 group (five):
SMILES	rRNA inh HTS	rRNA inh HTS OD600	rRNA inh HTS RFP	MLL AF4-AF9 inh	FGF22 binding
C[C@@H]1CN([C@@H](C)CO)C(=O)c2cc(NC(=O)CCC(F)(F)F)ccc2O[C@@H](C)CCCCO[C@H]1CN(C)C(=O)CCCN(C)C	0	3	0.3	-2.1	i
C[C@H](CO)N1C[C@H](C)[C@H](CN(C)C(=O)Nc2ccc(C(F)(F)F)cc2)OCCCC[C@H](C)Oc2ccc(NC(=O)CCC(F)(F)F)cc2C1=O	5	5	-0.6	-1.8	i
C[C@@H]1CN([C@@H](C)CO)C(=O)Cc2cc(NC(=O)Nc3ccc(C(F)(F)F)cc3)ccc2O[C@@H]1CN(C)C(=O)Nc1cccc2ccccc12	0	5	0.7	-22	i
CN1C(=O)c2cc(NC(=O)C3CCCC3)ccc2OC[C@H]2O[C@H](CC(=O)NCC(F)(F)F)CC[C@@H]21	0	8	-2.2	-1.0	i
CC(=O)Nc1ccc(CNc2nc3cc(-c4cccc(C(F)(F)F)c4)sc3c(=O)n2C)cc1	-4	11	-3.0	-2.9	i

(cont.)
SMILES	rRNA inh HTS	rRNA inh HTS OD600	rRNA inh HTS RFP	MLL AF4-AF9 inh	FGF22 binding
Cc1cccnc1C(c1ccc(F)cc1)N(C)C(=O)C1CCN(CCCOc2ccc(F)cc2)CC1 (centres undefined)	9	16	5.3	2.3	i
Cc1noc(C)c1NC(=O)N(C)C[C@@H]1OCCCC[C@@H](C)Oc2ccc(NC(=O)NC3CCCCC3)cc2C(=O)N([C@H](C)CO)C[C@H]1C	1	-4	-0.8	-8.8	i
O=C(C[C@@H]1C=C[C@H](NC(=O)C2CCC2)[C@@H](CO)O1)Nc1nccs1	3	2	-1.8	1.1	i
CCOC(=O)/C=C/c1ccccc1O	-5	13	-4.9	-0.2	i
C[C@@H]1CN([C@H](C)CO)C(=O)c2cc(C#Cc3cccc(F)c3)cnc2O[C@H]1CN(C)C(=O)C1CCCCC1	-7	-22	5.3	2.2	i
C[C@H](CO)N1C[C@H](C)[C@H](CN(C)CC2CC2)Oc2ccc(NS(=O)(=O)c3ccc(Cl)cc3)cc2CC1=O	2	4	2.8	-0.2	i
CCCC(=O)N1CCC1(C)C(=O)Nc1ccc(OC(F)F)cc1 (centres undefined)	1	10	1.8	-13	i
CCC(=O)N(C)C[C@H]1Oc2ncc(C#CCC3CCCC3)cc2C(=O)N([C@@H](C)CO)C[C@@H]1C	-1	8	-0.9	1.2	i
CCc1nc2ccc(C(=O)NCCCn3ccnc3)cn2c1N(CC)CCN(C)C	1	17	0.3	-4.5	i
Cc1ccc(S(=O)(=O)N[C@@H]2CC[C@H](CC(=O)NCc3ccccc3F)O[C@@H]2CO)cc1	1	3	-1.8	1.1	i
CO[C@H]1CN(C)C(=O)c2cc(NC(=O)C3CCOCC3)ccc2OC[C@@H](C)N(C)C[C@H]1C	2	5	0.2	-0.6	i
COc1ccc(CN(C)C[C@@H]2Oc3ccc(NC(=O)C4CC4)cc3C(=O)N([C@@H](C)CO)C[C@@H]2C)cc1	2	1	-2.4	-2.8	i
Cc1noc(C)c1NC(=O)Nc1cccc2c1O[C@H](CN(C)Cc1ccccc1)[C@H](C)CN([C@H](C)CO)C2=O	3	8	-4.3	1.1	i
Cn1cnc(S(=O)(=O)N[C@@H]2CC[C@@H](CC(=O)Nc3ccc(-c4ccccc4)cc3)O[C@H]2CO)c1	0	-2	3.0	-1.4	i
COc1ccc(CNC(=O)C[C@H]2C[C@H]3c4cc(NC(=O)CN(C)C)ccc4O[C@H]3[C@@H](CO)O2)cc1	2	0	0.1	-1.8	i
C[C@@H]1CCCCO[C@H](CN(C)C(=O)CCC(F)(F)F)[C@@H](C)CN([C@H](C)CO)C(=O)c2cc(NC(=O)CCC(F)(F)F)ccc2O1	5	3	0.0	-3.1	i
COc1ccccc1-c1ccccc1[C@H]1[C@@H](CO)N(C(=O)C2CCC2)[C@H]1C#N	-3	-6	-0.6	1.6	i
C[C@H]1CN([C@@H](C)CO)C(=O)c2cc(-c3ccccc3F)cnc2O[C@@H]1CN(C)Cc1ccccc1	2	22	0.1	0.3	i
CCS(=O)(=O)NCC[C@@H]1CC[C@@H](NS(=O)(=O)c2cccc(Cl)c2)[C@H](CO)O1	0	3	0.6	-3.0	i

Not all compounds are listed (hit frequency here may not be typical).
